Screening results deposited in PubChem by Broad Institute.
Tgondii IFNg – blocks Toxoplasma gondii growth in the presence of IFN-gamma | Toxoplasma gondii growth in IFN-gamma-treated host cells; hits give low values; reference of the scale not given here | activity change, negative = inhibition, %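 (about 20 µM by stock and volumes)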 | 69,000 compounds, 3.8% hits | AID 1259416;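 active means below -70%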;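 further: host cells are HeLa cells infected with Toxoplasma gondii; parasite growth read as luciferase light; one replicate is shown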
Numbers without * were called inactive; i = inactive. An excerpt (hit frequency here may not be typical).

SMILES	Tgondii IFNg
Cc1cccc(CN2CCN(C(=O)c3cc(C)c(C)n(C)c3=O)C(C)C2=O)c1 (stereo not drawn)	-5
Cc1nn2c3ccccc3n(CC(=O)c3ccco3)c2nc1=O	2
CCCn1ncc(C(=O)N2CCC(c3ccccc3C(=O)O)C2)c1C (stereo not drawn)	9
CN(C)c1cc(Nc2ccccc2)c2c(=O)n(C)c(=O)n(C)c2n1	-84*
Cc1cnc2c(C(=O)N(C)Cc3nc4ccc(F)cc4[nH]3)cnn2c1	-4
CCOc1ncccc1C(=O)N1CC[C@H](O)[C@@H](O)C1	6
c1cnc(N2CCCC2c2cncc(-n3ccnc3)n2)nc1 (stereo not drawn)	-4
COc1cc(C(=O)NCCc2csc(-c3ccc(C(F)(F)F)cc3)n2)cc(OC)c1OC	26
O=C(C1CC2(CCNCC2)CN1)N1CC(n2cccn2)C1 (stereo not drawn)	55
COc1ccc(CC2CN(C(=O)c3ccc4nc(C)[nH]c4c3)CCO2)cc1 (stereo not drawn)	-4
CNC(=O)CC1CC2(CCN(C(=O)COc3ccccc3)CC2)Oc2ccccc21 (stereo not drawn)	-5
OC[C@H]1[C@@H](c2ccc(-c3cccc(F)c3)cc2)[C@H]2CN(Cc3cncnc3)CCCCN21	2
O=C(NCc1cncc2c1CCN(Cc1ccccc1)C2)C1CC1	-7
COc1ccc2c3c(n(C)c2c1)[C@H](CO)NCC31CN(Cc2ccc(F)cc2)C1	76
Cc1ccc2c(c1)c(=O)c(C(=O)N(C)Cc1nc3ccc(F)cc3[nH]1)cn2C	-48

In a second layout: results already given.
molecule | Tgondii IFNg
CCCn1ncc(C(=O)N2CCC(c3ccccc3C(=O)O)C2)c1C (stereo not drawn) | 9
CN(C)c1cc(Nc2ccccc2)c2c(=O)n(C)c(=O)n(C)c2n1 | -84*

(continued)
SMILES	Tgondii IFNg
CCN(CC)C(=O)Cn1nc(-c2cccs2)cc(N)c1=O	30
CCn1c(-c2cc(NC(=O)c3ccncc3)n[nH]2)cc2ccc(OC)cc21	-92*
COc1ccc(NC(=O)N2CCN3CCN(C)CC3C2)cc1Cl (stereo not drawn)	3
Cc1nnc([C@]23CCO[C@H]2CCN(C(=O)c2occc2C)C3)o1	9
Cc1ccc(-c2nc(C(=O)NC(C)C)c3n2CCCCC3)cc1	-78*
CN1CCN(c2nccc(CN3CCC(c4nnsc4S(C)(=O)=O)CC3)n2)CC1	44
COc1ccc2c3c(n(C)c2c1)[C@H](CO)N(Cc1cccnc1)CC31CN(C(=O)c2cccnc2)C1	-7
O=C(CNCc1ccccc1-n1cncn1)NCc1ccccc1F	1
COc1cccc(-c2nc(Cn3ccn4nc(-c5ccc(C)cc5)cc4c3=O)c(C)o2)c1OC	-17
C[C@@H]1CN([C@@H](C)CO)C(=O)c2cc(NC(=O)Nc3ccccc3)ccc2O[C@H]1CN(C)Cc1ccccc1	-28
CCCn1c(=O)c(-c2nc(-c3ccc(F)c(Cl)c3)no2)c(O)c2ccccc21	111
Cc1nnnn1CCCN1CCC2(C1)CN(C)C(=O)O2 (stereo not drawn)	7
Cc1cc2ncn(CCC(=O)O)c2cc1C	30
CCCc1cnc(C)nc1NCC1CCN(C(=O)C2CC2)CC1	-37
C[C@@H]1CCCCO[C@@H](CN(C)Cc2ccc(C(F)(F)F)cc2)[C@@H](C)CN([C@H](C)CO)C(=O)c2cc(NC(=O)Nc3cccc4ccccc34)ccc2O1	i

Reprinted at random: 3 records from the list.
SMILES	Tgondii IFNg
O=C(CNCc1ccccc1-n1cncn1)NCc1ccccc1F	1
C[C@@H]1CCCCO[C@@H](CN(C)Cc2ccc(C(F)(F)F)cc2)[C@@H](C)CN([C@H](C)CO)C(=O)c2cc(NC(=O)Nc3cccc4ccccc34)ccc2O1	i
COc1ccc2c3c(n(C)c2c1)[C@H](CO)NCC31CN(Cc2ccc(F)cc2)C1	76

Rewritten comma-delimited: two of the compounds above
mol,Tgondii IFNg
COc1ccc2c3c(n(C)c2c1)[C@H](CO)N(Cc1cccnc1)CC31CN(C(=O)c2cccnc2)C1,-7
O=C(CNCc1ccccc1-n1cncn1)NCc1ccccc1F,1

A portion of the results above, as a working copy:
SMILES	Tgondii IFNg
CCN(CC)C(=O)Cn1nc(-c2cccs2)cc(N)c1=O	30
CCn1c(-c2cc(NC(=O)c3ccncc3)n[nH]2)cc2ccc(OC)cc21	-92*
COc1ccc(NC(=O)N2CCN3CCN(C)CC3C2)cc1Cl (stereo not drawn)	3
Cc1nnc([C@]23CCO[C@H]2CCN(C(=O)c2occc2C)C3)o1	9
Cc1ccc(-c2nc(C(=O)NC(C)C)c3n2CCCCC3)cc1	-78*
CN1CCN(c2nccc(CN3CCC(c4nnsc4S(C)(=O)=O)CC3)n2)CC1	44

Continuation:
SMILES	Tgondii IFNg
O=C(N1CCC(n2c(=O)oc3cccnc32)CC1)C1(c2ccc(Cl)cc2)CCCCC1	-6
Cc1cnn(CC(=O)Nc2cccc(CCc3ccncc3)c2)c1	13
CCc1cc2ccc(C)c(C)c2nc1SCC(=O)Nc1c(C)[nH]c(=O)[nH]c1=O	7
COc1ccc(C(=O)N2CCN(C3CCN(c4nc(C)c5cc(F)ccc5n4)CC3)CC2)cc1	-59
Cc1nn(CC(C)C(=O)N2CCN(CCOC(C)C)CC2)c(C)c1Cl (stereo not drawn)	-5
Cc1n[nH]c(C)c1CCc1cc(=O)[nH]c(NC2CCN(Cc3ccccc3)CC2)n1	16
Cc1oc(-c2ccccc2)nc1Cn1nnc(C(=O)Nc2cc(F)ccc2F)c1C	1
C=C1SC(=Nc2cccc(OC)c2)N(C(=O)C(c2ccccc2)C2CCCC2)C1(C)C (stereo not drawn)	-90*
CC(C)C1CN(C(=O)c2ccccc2O)CCCN1Cc1ccc(F)cc1 (stereo not drawn)	10
CN1CCC=C(Cn2nccc2NC(=O)Cc2ccc(F)cc2)C1	-2
CCn1c(=O)c(-c2nc(-c3ccccc3Cl)no2)c(O)c2ccc(F)cc21	49
Cn1c(C(F)(F)F)nc2cc(NC(=O)c3cc(-n4cccn4)ccc3Cl)ccc21	-5
CCO[C@@H]1CO[C@@]2(CCCN(C(=O)COc3ccccc3OC)C2)C1	-5
COc1cc2c(cc1NC(=O)c1ccc3c(c1)OCO3)oc1ccccc12	138
Cc1cnc2c(C(=O)NCc3snnc3C(C)C)cnn2c1	-12
COc1ccc(OCCN(C)C(=O)C2CN(c3ncccn3)CCO2)cc1 (stereo not drawn)	4
C[C@@H]1CN([C@H](C)CO)S(=O)(=O)c2ccc(-c3cncnc3)cc2O[C@@H]1CN(C)C(=O)NC1CCCC1	-64
CN1c2ccc(C3=CCCCC3)cc2[C@H]2[C@H](CCN2C(=O)Cc2ccccn2)[C@@H]1CO	-9
Cc1oc(C2CCN(C(=O)Nc3ccc(F)cc3)CC2)nc1C(=O)N1CCOCC1	-66
Cc1nc(CN2CCO[C@@H]3CN(CC(=O)N(C)C)C[C@@H]32)cs1	-68
COc1cccc(CN2Cc3ccccc3N(CC(=O)NCC3(N4CCOCC4)CCCC3)C2=O)c1	209
CO[C@@H](CN(C)C(=O)c1cc(Cl)cc(Cl)c1)[C@H](C)CN(C(=O)Nc1ccc(F)cc1)[C@H](C)CO	75
NC1=N[C@@]2(c3cc(NC(=O)c4ccc(F)cn4)ccc3F)COC[C@@H]2CS1	-1
COc1ccc(CNC(=O)Cn2ncc3c(N4CCOCC4)ncnc32)c(OC)c1	43
CC(=O)NCC(=O)N1CCc2ncc(Cn3cncn3)n2CC1	1
CN(C)C(=O)CN1C(=O)CO[C@H]2CN(c3ccccn3)C[C@@H]21	84
CC1=C(C(=O)N2CCN(c3ccccc3)CC2)C2(CCN(S(=O)(=O)c3cccs3)CC2)OC1=O	2
COc1ccc(CC(=O)N2CCC3(CC2)CC(N2CCCC2)CO3)cc1 (stereo not drawn)	-3
CCOc1ccc(CC(=O)Nc2ccc(-c3nc(-c4ccccc4)co3)cc2)cc1OCC	-9
COc1ccccc1CN1[C@H](CO)[C@H]2c3ccccc3N(C(=O)C3CCOCC3)C[C@H]21	4
O=C(c1cccc(F)c1)N1CC2(C1)[C@H](c1ccccc1)[C@H](CO)N2C(=O)C1CCCCC1	-22
Cc1ccsc1CCNC(=O)CC1C(=O)N(C)C(=O)N1C (stereo not drawn)	3
COC(=O)c1ccccc1N(C)C(=O)c1cc2cccnc2n(Cc2ccccc2)c1=O	-16
O=C(O)CCCCN(CCc1ccccc1OCc1ccc(CCc2ccccc2)cc1)Cc1ccc(C(=O)O)cc1	17
CN(C)C(C(=O)N1CCC(c2ccc(-c3ccn[nH]3)cn2)CC1)c1ccc(Cl)cc1 (stereo not drawn)	-10
Cc1cc(C(F)F)n2ncc(C(=O)Nc3ccc4c(c3)N(C)CCC4)c2n1	20
Cc1ccc(NC(=O)CN2CCC3(CC2)N=C(c2ccc(C(C)(C)C)cc2)C(=O)N3)cc1C	-76*
CN(C)C(=O)N1CCCn2c(nc(CN3CCCC3)cc2=O)C1	260
CCS(=O)(=O)N1Cc2cc(C(=O)NCCOC)nc(-c3cccc(-c4ccncc4)c3)c2[C@H]1CCO	-8
O=C(Nc1cccc2ncccc12)c1cc(C2CCN(C(=O)C3CCCC3)CC2)no1	-5
CCOC(=O)C1(CCc2ccccc2)CCN(C(=O)c2ccc(C#CC(C)(C)O)cc2)CC1	-25
O=C(CSC12CC3CC(CC(C3)C1)C2)N1CC[C@H]2CC[C@@H](C1)N2	-16
O=C(c1cc(Cn2ccc3ccccc32)[nH]n1)N1[C@@H]2CC[C@H]1CC(O)C2 (stereo partly drawn)	2
CC1(C(=O)O)CC(N2CCCC2)CCN1C(=O)CCc1ccccc1 (stereo not drawn)	4
Cc1ccc(NC(=O)c2c(O)c3cccnc3n(-c3ccccc3)c2=O)c(C)c1	-9
O=c1[nH]nc(Sc2ncc([N+](=O)[O-])s2)n1-c1ccc2c(c1)OCCO2	52
Cc1ccc(NC(=O)C(=O)NCCc2csc(-c3ccc(F)cc3)n2)cc1	47
O=C1N(Cc2ccc(F)c(F)c2)CCCC1(O)CNCCc1cnccn1 (stereo not drawn)	7
Cc1noc(C)c1-c1nc(CC(C)C)nn1-c1cccc2cccnc12	7
O=c1[nH]c2ccccc2c(O)c1-c1nc(-c2ccc(Br)cc2)no1	27
CCN1C(=O)c2cc(C(=O)N3CCN(c4ncccn4)CC3)nn2CC1(C)C(=O)NC1CCCC1 (stereo not drawn)	29
CCN1C(=O)[C@H]2CN(C(C)=O)C[C@@H]2C12CCN(S(=O)(=O)Cc1ccccc1)CC2	0
CCS(=O)(=O)N1CCN(c2ccc(S(=O)(=O)N3CCOCC3)cc2)CC1	-4
COc1cccc(-n2c(=O)c(C(=O)Nc3cc(F)ccc3C)c(O)c3cccnc32)c1	231
C[C@@H]1CN([C@H](C)CO)S(=O)(=O)c2ccc(C#CC3(O)CCCC3)cc2O[C@H]1CN(C)C(=O)Nc1cccc(F)c1	-90*
O=C(ON(C(=O)c1ccc(F)cc1)C1C2CC3CC(C2)CC1C3)c1ccc(F)cc1 (stereo not drawn)	17
O=C(C[C@H]1CC[C@H]2NC[C@@H](O)COC[C@@H]2O1)NCc1ccc2c(c1)OCO2	37
CC1(C(=O)N2CCC(c3n[nH]c(=O)n3Cc3ccccc3)CC2)CCCO1 (stereo not drawn)	-3
CN(C)CCOCC1CN(Cc2cnn(C)c2)Cc2nnn(C)c21 (stereo not drawn)	94
Cc1nc(C2CCCNC2)cc(N(C)Cc2noc3c2CCCC3)n1 (stereo not drawn)	-7

Carrying on:
SMILES	Tgondii IFNg
Cc1cccc(S(=O)(=O)N[C@H]2CC[C@H](CCNC(=O)Nc3cc(F)ccc3F)O[C@H]2CO)c1	-34
CCc1c(C)sc2nc(-c3ccc(OC)cc3)nc(SCCOC(N)=O)c12	6
CCc1ccccc1Nc1noc2c1CN(C(=O)c1ccn(C)n1)CC2	20
Cc1cc(NC(=O)c2c(O)c3cccnc3n(-c3ccccc3)c2=O)ccc1F	-28
Cc1csc2c(N3CCC4(CCC(=O)N(C)CC4)CC3)ncnc12	6
CN(C)C(=O)c1n[nH]c2c1CCN(Cc1nccs1)C2	-8
COC(=O)C[C@H]1CC[C@@H]2[C@H](COc3ccc(NC(=O)Nc4c(C)noc4C)cc3C(=O)N2C)O1	1
O=C(Cn1c(=O)cc(C(=O)N2CCOCC2)c2ccccc21)Nc1ccc(Br)cc1	15
Cc1n[nH]c(C)c1N=Nc1cc(Cl)cc(Cl)c1	-92*
CCCCNc1nc(C(=O)OCC)nc2ccccc12	1
c1coc(-c2noc(CN3CCCCC3CCN3CCOCC3)n2)c1 (stereo not drawn)	11
Cc1ccc(C(=O)N2C[C@H]3CCCO[C@H]3[C@@H](Nc3ccccn3)C2)o1	0
CN(C)c1ccc(CNC(=O)Cn2ncc3c(N4CCOCC4)ncnc32)cc1	68
COc1ccc(-c2noc(-c3c(O)c4ccccc4n(C)c3=O)n2)cc1F	31
CC1(C)CC(=O)C=C(C(=O)N2CC[C@@H](c3ccc(F)cc3)[C@H](O)C2)O1	12
CO[C@H]1CN(C(=O)C(C)(C)c2ccccc2)CC[C@H]1N	-1
O=C(CSc1nc(-c2cccs2)cc(C(F)(F)F)n1)N1CCCc2ccccc21	-43
CCC(NC(=O)Cn1nnc2ccccc2c1=O)c1ccccn1 (stereo not drawn)	-1
O=C1COC2(CCN(C(=O)c3ccco3)CC2)CN1CC1CC1	4
Cc1cnc(N2CCc3nc(N4CCCC4)nc(N(C)C)c3CC2)nc1	-7
Cc1cccc(NC(=O)N2CCC(c3nc(C(=O)N4CCOCC4)c(C)o3)CC2)c1	35
COC(=O)[C@@H]1CC(=O)O[C@H](C)C/C=C/C=C/[C@H](O)[C@H](C)C[C@H](CC=O)[C@H](OC2O[C@H](C)[C@@H](OC3C[C@@](C)(O)[C@@H](OC(=O)CC(C)C)[C@H](C)O3)[C@H](N(C)C)[C@H]2O)[C@H]1OC (stereo partly drawn)	-28
Cc1cccc(C)c1OCc1cc(C(=O)N(C)Cc2n[nH]c3c2CCCC3)no1	-22
CCN1c2ccccc2C(=O)NC12CCN(C(=O)Nc1cccc(OC)c1)CC2	-30
CCOCC1CN(C(=O)Cc2ccc(OC)cc2)Cc2ccnn2C1 (stereo not drawn)	-4
CO[C@H]1CC[C@H]2CCOc3c(C#N)cccc3C(=O)N(C)CC3(CCCCC3)CC(=O)N(C)C[C@H]1O2	-23
